HSD17B inh = qHTS Assay for Inhibitors of HSD17B4, hydroxysteroid (17-beta) dehydrogenase 4. 3-hydroxyacyl-CoA dehydrogenase type-2 (Homo sapiens), Q99714. recombinant HSD17B10, NADH fluorescence kinetic; many of its hits are not listed in these tables. Potency, µM (top dose mostly 57.1 µM), inactives show top-dose activity change, negative = inhibition, actives largely listed as inhibitors. hit rate 7.6% among 75,000. AID 893, 2007; active = well fitted inhibition curve with a large enough effect; inconclusive = small, poorly fitted or top-dose-only effect; inactive = no such curve, though single readings can be large or run the other way;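 note: the protocol describes HADH2 (HSD17B10) and not the HSD17B4 of the title; nearly all actives have a fitted effect of over 70% in size; most hits overshoot -100% by far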
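Enzyme plus compound, 15 min room temperature; substrate mix added (NAD+ 1 mM, beta-hydroxybutyryl-CoA 90 uM final); plates read kinetically for NADH fluorescence. HADH2 was His-tagged, E. coli-derived, 20 nM.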
Starred values were filed as active, the others as inactive; ? = inconclusive; [ ] = dose if it differs, or a comment. % is set by controls: 0 for no effect and ±100 for the full control effect; potency is the fitted concentration of half-maximal effect.

SMILES | HSD17B inh
Cc1nnc(SCC(=O)c2ccc(S(=O)(=O)N3CCOCC3)cc2)n1-c1ccccc1 | -12%
NC(Cc1ccccc1)=NCC(=O)O | 1%[11.4 µM]
COc1ccccc1CNc1ccnc(-c2c(C)noc2C)n1 | -10%
CCOc1ccccc1C1C(C(=O)OC)=C(N)OC2=C1C(=O)CCC2 (stereo unspecified) | 4%
Cc1cccc(CNc2ncnc3ccc(-c4ccccc4CN(C)C)cc23)c1 | 1%
CCCNC(=O)C(CC)NS(=O)(=O)c1ccc(OC)cc1 (stereo unspecified) | -2%
CC(=O)Nc1ccc(S(=O)(=O)N2CCSC2c2ccc(Cl)cc2)cc1 (stereo unspecified) | 5%
Cc1cc(=O)[nH]c(S/C=C/c2ccccc2)n1 | 10%
CC(C)CCN1CC(C(=O)NCc2ccc(F)cc2)CC1=O (stereo unspecified) | 12%
O=C(CSc1nc(-c2ccncc2)nn1CC(=O)N1CCCCC1)NC1CCCC1 | 5%
Cc1cccc(NC(=O)Cn2cnc3c(cnn3-c3ccc(F)cc3)c2=O)c1C | 6%
COCCn1c(N2CCN(c3ccc(OC)cc3)CC2)nc2c1c(=O)n(C)c(=O)n2C | 6%
CS(=O)(=O)Nc1ccc(C(=O)NCC2CCCO2)cc1 (stereo unspecified) | -22%
C[C@@H](C(=O)NCCc1c[nH]c2ccccc12)[C@@H]1C[C@@]1(C)[C@@H](NC(=O)OCc1ccccc1)c1ccccc1 | 23%
COc1ccc(N2CCN(c3nc(NC(C)(C)C)nc(N4CCCCC4)n3)CC2)cc1 | 0%
O=S(=O)(c1cc(Cl)ccc1Cl)N1CCCCC1 | -4%
O=C(O)C1C2C=CC(C2)C1C(=O)NC1CCS(=O)(=O)C1 (stereo unspecified) | 16%
CCOc1ccccc1N(CC(=O)O)S(=O)(=O)c1ccccc1 | 3%
Cn1c(CNC(=O)C(C)(C)C)nc2ccccc21 | 4%
CCOC(=O)N1CCC(NC(=O)C2=C(C)C(=O)OC23CCC(C)CC3)CC1 (stereo unspecified) | 6%

Next section (5 carried over from the part before).
SMILES | HSD17B inh
O=S(=O)(c1cc(Cl)ccc1Cl)N1CCCCC1 | -4%
O=C(O)C1C2C=CC(C2)C1C(=O)NC1CCS(=O)(=O)C1 (stereo unspecified) | 16%
CCOc1ccccc1N(CC(=O)O)S(=O)(=O)c1ccccc1 | 3%
Cn1c(CNC(=O)C(C)(C)C)nc2ccccc21 | 4%
CCOC(=O)N1CCC(NC(=O)C2=C(C)C(=O)OC23CCC(C)CC3)CC1 (stereo unspecified) | 6%
CCOC(=O)c1cc2sccc2n1CC(=O)c1ccc2c(c1)OCCO2 | 6%
O=C(NCc1ccco1)c1cc(S(=O)(=O)N2CCOCC2)c(Cl)cc1Cl | -4%
CCOc1cc(C#N)c(NC(=O)CSc2nnnn2-c2ccc(OC)cc2)cc1OCC | -15%
CCN(CC)C(=O)CSc1ncnc2c(-c3cccs3)nsc12 | ?
Cc1cc(=O)n(C)c(=O)n1CCCCCN1CCCC1 | 5%
COc1ccc(N(CC(=O)N2CCCC(C)C2)S(=O)(=O)c2c(C)nn(C)c2C)cc1 (stereo unspecified) | 9%
O=C(O)CC(NS(=O)(=O)c1cccc2nsnc12)c1ccc(F)cc1 (stereo unspecified) | 7%
Cc1ccc(Cn2ncc3c(N4CCN(c5ccccc5C)CC4)ncnc32)cc1 | 32µM*
O=C(CSc1ccc2nnc(-c3ccncc3)n2n1)Nc1ccc2c(c1)OCCO2 | 196%[activator]
O=C1C2C(C(=O)N1CC1CCCO1)C1C=CC2C12CC2 (stereo unspecified) | 5%
CCCCCC(=O)N(CN1C(=O)CCC1=O)c1ccccc1 | 3%
COc1ccccc1NC(=O)c1oc2ccc(C)cc2c1C | ?
CC1(C)Cc2nc3sc4c(=O)[nH]cnc4c3cc2CS1 | 25µM*
Cc1[nH]cnc1CSCCN | 2%
CCOC(=O)CSc1nc2c(sc3ccccc32)c(=O)n1CCCN1CCOCC1 | ?
COc1ccccc1-c1cncnc1NCCN1CCOCC1 | -2%
Cc1nnc(SCC(=O)Nc2ncc3c(n2)CCCC3=O)s1 | 5%
COc1ccc2c(c1)c1c(n2C(C)=O)C(OC(C)=O)=NCC1 | 25µM*
Cn1c(CCN2CCCCC2)nc2cc(NS(=O)(=O)c3ccc(F)cc3)ccc21 | -3%
CC(C)=CC(=O)Nc1ccccc1Br | 0%

Quoted at random: two compounds from above.
SMILES | HSD17B inh
Cn1c(CCN2CCCCC2)nc2cc(NS(=O)(=O)c3ccc(F)cc3)ccc21 | -3%
CCCCCC(=O)N(CN1C(=O)CCC1=O)c1ccccc1 | 3%

Next entries follow:
SMILES | HSD17B inh
NC(=O)OC[C@H](O)COc1ccc(Cl)cc1 | 3%[25.6 µM]
Cn1nnnc1SCC(=O)Nc1ccc(Cl)cc1Cl | 9%
CC(NC(=O)c1ccc2c(c1)OCCO2)C(=O)O (stereo unspecified) | 1%
COCCn1c(=S)[nH]c2cc(OC)c(OC)cc2c1=O | 3%
Cc1cc(NC(=O)CSc2nnc3c(C)cc4cc(C)c(C)cc4n23)no1 | 3%
CCOC(=O)C1=C(C)NC(=O)NC1c1ccc(OCC(=O)Nc2ccccc2)c(OC)c1 (stereo unspecified) | 1%
Cc1cccc(OCC(=O)N2CCC(c3ccccc3)C2)c1 (stereo unspecified) | -6%
CC(=O)NCCn1c(SCC(=O)NCC2CCCO2)nc2ccccc2c1=O (stereo unspecified) | 13%
COC(=O)CCCCCC(CCC(=O)OC)NC(C)=O (stereo unspecified) | 3%
Cc1ccc2cccnc2c1 | 5%
CCCCOc1ccc(C(=O)Nc2ccc(N3CCN(C(=O)C(C)C)CC3)cc2)cc1 | 6%
CCCOC(=O)c1c(-c2ccccc2)nc(CC)c(C(=O)SCC)c1CCC | -4%
COc1ccccc1-c1nc(Nc2ccncc2)c2ccccc2n1 | -18%
COCCCNC(=O)CSc1nc2ccc(N3CCOCC3)cc2c(=O)n1CCc1ccccc1 | ?
O=C(O)Cn1c(C(F)(F)F)nc2ccccc21 | 8%
O=C(Nc1ccccc1)c1ccccc1O | ?
CC(C)c1ccc(NC(=O)C2CCCN(S(=O)(=O)c3cnc[nH]3)C2)cc1 (stereo unspecified) | 4%
CC(=O)Oc1cc(-c2coc3cc(OC(C)=O)c(OC(C)=O)c(OC(C)=O)c3c2=O)cc(OC(C)=O)c1OC(C)=O | ?
CCNc1nc(NCC)nc(N(C)n2cnnc2)n1 | 9%
Clc1ccc(-c2nc(-c3ccccn3)no2)cc1Cl | -2%
CC(=O)NC(Cc1ccccc1)C(=O)NC1CCN(C(=O)c2cnccn2)CC1 (stereo unspecified) | 12%
Fc1cccc(Nc2cc(-n3cccn3)ncn2)c1 | -23%
O=C1[C@H]2[C@H]3[C@H](O)[C@H](O)C/C(=N/OCc4ccccc4)[C@@H]3CC[C@@H]2C(=O)N1C[C@@H]1CCCO1 | 3%[11.4 µM]
CCOc1cc(CN2CCN(c3ccc(C(C)=O)cc3)CC2)ccc1OC | -11%
C=CCn1c(SCC(=O)Nc2nnc(CC)s2)nnc1-c1ccco1 | -1%
CCOc1ccccc1OCC(=O)Nc1ccc(S(=O)(=O)N(C)C)cc1 | -2%
COc1ccc2oc(C(=O)c3ccccc3)c(NC(=O)CN3CCN(C)CC3)c2c1 | -9%
CCOC(=O)Nc1ccc2c(c1)N(C(=O)N(CC)CC)c1ccccc1CC2 | 4%
CCn1nnnc1NCc1cccn1C | -2%
CCN1CCN(C(c2ccc(OC)c(OC)c2)c2nnnn2C(C)(C)C)CC1 (stereo unspecified) | 6%

Of the compounds above, these have a Cl atom:
SMILES | HSD17B inh
CC(=O)Nc1ccc(S(=O)(=O)N2CCSC2c2ccc(Cl)cc2)cc1 (stereo unspecified) | 5%
O=S(=O)(c1cc(Cl)ccc1Cl)N1CCCCC1 | -4%
O=C(NCc1ccco1)c1cc(S(=O)(=O)N2CCOCC2)c(Cl)cc1Cl | -4%
NC(=O)OC[C@H](O)COc1ccc(Cl)cc1 | 3%[25.6 µM]
Cn1nnnc1SCC(=O)Nc1ccc(Cl)cc1Cl | 9%
Clc1ccc(-c2nc(-c3ccccn3)no2)cc1Cl | -2%

Remaining list, next part
Structure	HSD17B inh
CCCCSc1nc(N)c(NC(=O)c2ccco2)c(=O)[nH]1	10%
O=C(NCC1CCCO1)c1ccc(CS(=O)(=O)Cc2ccc(F)cc2)o1 (stereo unspecified)	-3%
CC1CCCCC1NC(=O)Cn1c(CN2CCCCC2)nc2ccccc2c1=O (stereo unspecified)	4%
Cc1nn(-c2ccccc2)c2sc(C(=O)N3CCOCC3)cc12	-1%
Cn1c(-c2ccc(F)cc2)cnc1SCC(=O)Nc1ccccc1N1CCOCC1	-9%
Cc1ccc(C)c(OCC(=O)Nc2ccc3c(c2)OCO3)c1C	-7%
COC(=O)Nc1nc2c(C)cccc2s1	-3%
COc1ccc(OC)c(NC(=O)CSc2nc3c(c(=O)n(C)c(=O)n3C)n2C)c1	1%
Cc1ccc(C(=O)C2=C(O)C(=O)N(CCN(C)C)C2c2ccccn2)o1 (stereo unspecified)	9%
O=C(O)C(CC(=O)N1CCOCC1)NCc1ccccc1 (stereo unspecified)	6%
O=C(c1ccc(Cn2c(=O)[nH]c3ccccc3c2=O)cc1)N1CCN(c2ccc(F)cc2)CC1	-17%
OC(CN1CCOCC1)C12CC3CC(CC(C3)C1)C2 (stereo unspecified)	9%
Cc1c(NC(=O)c2ccco2)cccc1-c1nc2cccnc2s1	-17%
Clc1ccc(OCc2nc(-c3ccccn3)no2)c(Br)c1	-1%
Cc1nc(C)c(C(=O)Nc2cccc(C)c2C)o1	-15%
CCN(CC)CCOc1ncnc2c1oc1ccccc12	14%
CCOc1ccc(NC(=O)CSc2nnc(Cn3c(=O)sc4ccccc43)n2C)cc1	1%
O=C(Nc1nccs1)NC1CCCCC1	12%
O=C1CCCCCN1Cc1nnc(SCc2nc3ccccc3s2)n1-c1ccccn1	5%
CCC(COC(=O)Nc1cccc(C)c1C)NC(=O)OCC(C)C (stereo unspecified)	-1%
CC(=O)NC1(C2CCCCC2=O)CCCCC1 (stereo unspecified)	6%
CC(=O)NC(Cc1c[nH]c2ccccc12)C(=O)Nc1ccc2c(c1)OCO2 (stereo unspecified)	-9%
COc1ccc(NC(=O)Nc2nccs2)cc1	6%
COc1cc(C2C(C(=O)c3ccco3)=C(O)C(=O)N2Cc2cccnc2)cc(OC)c1OC (stereo unspecified)	0%
CCCOc1cccc(C2/C(=C(/O)c3ccncc3)C(=O)C(=O)N2CCCN(C)C)c1 (stereo unspecified)	3%
Cc1ccc(S(=O)(=O)N2CCOCC2)cc1C(=O)OCC(=O)N1CCc2ccccc2C1	-6%
CCCOc1ccc(-c2nc(C#N)c(N3CCN(CC)CC3)o2)cc1	32µM*
CC(=O)Nc1ccccc1C(=O)N1CC(C)OC(C)C1 (stereo unspecified)	0%
CCC(=O)N1CCc2cc(S(=O)(=O)CCC(=O)Nc3c(C)n(C)n(-c4ccccc4)c3=O)ccc21	6%
CCCCCCCCCCCCC/C=C\[C@@H](O)[C@@H](N)CO	-26%
CCN=C1Cn2c(nc3scc(-c4ccccc4)c3c2=O)CN1CC	?
C/C=C/Cn1c(N2CCCCCC2)nc2c1c(=O)[nH]c(=O)n2C	0%
O=C1CC(N2CCN(S(=O)(=O)c3ccc(Cl)cc3)CC2)C(=O)N1CCc1ccccc1 (stereo unspecified)	-2%
Nc1ccc(S(=O)(=O)NCc2nccs2)cc1	-1%[11.4 µM]
CC(=N)C1=C(O)CC(C)(C)CC1=O	-1%
CO/N=C\[C@@H](OC)[C@H](C)/C=C\CC(=O)OC	5%[11.4 µM]
Cc1c(CNC(=O)c2cnn3c2NC(c2ccc(Br)cc2)CC3C(F)(F)F)cnn1C (stereo unspecified)	4%
Cc1cc(C)cc(C#CC2C=CC(Oc3ccc(C4CCCC4)cc3)C(CO)O2)c1 (stereo unspecified)	4%[11.4 µM]
CCn1c(=O)[nH]c2cc(C(=O)N3CCN(c4ccccc4)CC3)ccc2c1=O	0%
COc1ccc(C(=O)Nc2oc(-c3ccccc3)c(-c3ccccc3)c2C#N)cc1OC	?
Cc1cc(O)c2c(c1O)C(=O)c1c(O)cc(C)c(O)c1C2=O	-13%
CCOC(=O)c1sc2nc(C)n(CC(=O)NCC3CCCO3)c(=O)c2c1C (stereo unspecified)	0%
O=C1CCCC2=C1C(c1ccncc1)c1c(nc(SCc3ccccc3Cl)[nH]c1=O)N2 (stereo unspecified)	?
Cc1noc(C)c1COC(=O)C1(c2cccc(F)c2)CCCC1	-3%
O=C(CCn1c(=O)c2ccccc2n(Cc2cccnc2)c1=O)NCc1ccc2c(c1)OCO2	8%
N#CC1=C(N)Oc2ccccc2C12C(=O)Nc1n[nH]c(-c3ccccc3)c12 (stereo unspecified)	4%
COC(=O)c1ccccc1NC(=O)CN(c1ccccc1)S(=O)(=O)N(C)C	-2%
COc1ccc(C2C(C(=O)N3CCCC3)c3cc(OC)c(OC)cc3C(=O)N2C)cc1OC (stereo unspecified)	7%
CC(O)CN(Cc1cccc(Cl)c1)CC(C)O (stereo unspecified)	-1%
NC(=O)CSc1nc2c(sc3ccccc32)c(=O)n1CCCN1CCOCC1	-11%
Cc1noc(NS(=O)(=O)c2ccc(NC(=O)c3ccc(Br)o3)cc2)c1C	2%
COc1ccc(C2C3=C(CCCC3=O)Nc3nc(C(F)(F)F)nn32)cc1OC (stereo unspecified)	25µM*
O=C(NC1CCCC1)c1cc(-c2cccs2)on1	-4%
CCOC(=O)CC1C(=O)NCCN1C(=O)COc1ccc(Br)cc1C (stereo unspecified)	-2%
Fc1cccc2sc(N3CCCCC3)nc12	1%

Assay outcomes from PubChem BioAssay.

The list is partial; rates above refer to the full screens.
